# Screening data deposited in PubChem by National Center for Advancing Translational Sciences (NCATS).
# Anthrax LT inh = inhibitors of anthrax lethal toxin internalization | Cells, anthrax lethal toxin internalization, FRET ratio (460/530) | Potency, µM (series often up to 40 µM), inactives show at the highest dose activity change, negative = inhibition, most hits filed as inhibitors | actives 0.67% (n = 70,000) | AID 912; active = well fitted falling ratio curve with the 530 nm signal flat; inconclusive = other ratio curves, or a change in one channel alone; inactive = flat curves in the ratio and both channels; the % refers to the ratio; also: % is scaled to controls: 0 for no effect and ±100 for the full control effect; nearly all actives have a fitted effect of over 50% in size; tested in ME-180 cells; beta-lactamase reporter
# SmPrx2 inh = Schistosoma mansoni Prx2 inhibition; actives 0.07% (n = 65,000); Potency, µM; S. mansoni Prx2 activity coupled to TGR/GSH (TGR is thioredoxin glutathione reductase), NADPH fluorescence loss, qHTS; some inactives read as strong as hits; active means full or partial inhibition curve with a strong effect at the top dose; inconclusive means weaker partial or single-point curve; inactive means no accepted curve; also: series up to 57 µM; many of its hits are not listed in these tables
#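 Coupled assay in which S. mansoni TGR passes NADPH reducing equivalents via glutathione to Prx2, which reduces H2O2. Compounds were preincubated 15 min at room temperature with 25 nM TGR/50 nM Prx2 mix. Kinetic NADPH fluorescence loss (ex 365/em 450 nm) was monitored.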
# Starred values were filed as active, the others as inactive; ? = inconclusive; / = not tested or not shown; & = joins results of further samples; [ ] = dose if it differs, or a comment. Potency is read from the fitted curve at half-maximal effect. These rows are one share of the data; the hit share may differ from the screen's.
canonical_smiles,SmPrx2 inh,Anthrax LT inh
COc1ccccc1N=c1scc(-c2ccc3c(c2)NC(=O)CO3)n1CC1CCCO1 (configuration not stated),>57,-28%
CN(C=O)CP(=O)(O)CCN1CCCC1=O,>57,0%
COc1ccc(NC(=O)CCc2ccccc2)cc1NC(=O)c1ccco1,>57,-17%
C/C(CCN1CCCCc2nc(C)c(C)cc21)=N\OC[C@@H](O)COCc1ccco1,/,2%[8 µM]
COc1ccc(CCNC(=O)COC(=O)c2ccco2)cc1OC,>57,0%
CCC(c1nnnn1Cc1ccc(F)cc1)N1CCN(C2CCCCC2)CC1 (configuration not stated),>57,-2%
Cc1cnc(CNc2ncncc2-c2cccnc2)cn1,>57,?
c1cn2cc(CSC3CCCCC3)nc2s1,>57,-1%
COc1ccc(-c2nc(Cn3c(SCc4cccc(F)c4)nc4ccncc43)c(C)o2)cc1OC,>57,-18%
Cc1ccc(-c2nc(C#N)c(NCc3ccco3)o2)cc1,>57,14%
CCn1ncc(NC(=O)Nc2cccc(C(F)(F)F)c2)c1C(N)=O,>57,-1%
O=C1c2ccccc2C(=O)C1c1ccc2ccccc2n1,/,0%
COc1ccc(OC)cc1,/,8%
O=C(CCCCCn1c(=O)[nH]c2ccsc2c1=O)N1CCCCC1,>57,-14%
CN(C)CCCn1cnc2cc(Cl)c(Cl)cc21,>57,-12%[8 µM]
CCOC(=O)Cn1c(-c2ccccn2)nc2ccccc21,>57,-10%
COc1ccc(-c2csc(NC(=O)c3cc(C)on3)c2C#N)cc1OC,>57,?
O=C(Nc1ccccc1)NC1(C(=O)N2CCN(C(=O)c3ccco3)CC2)CCCCC1,>57,?
Cc1ccc(S(=O)(=O)C2(C(=O)Nc3nccs3)CC2)cc1,>57,-5%
CCOc1ccc(-c2noc(COC)n2)cc1OC,>57,11%
Cn1cnnc1SCC(=O)Nc1ccccc1C(=O)NC1CCCC1,>57,7%
Cc1ccc(S(=O)(=O)N(CC(=O)N2CCC(C(N)=O)CC2)Cc2ccc(F)cc2)cc1,>57,-1%
CCn1c(SCC(=O)Nc2ccc(C(C)=O)cc2)nc2ccccc21,>57,-3%
Cc1cccc(-c2c3c(=O)n(C)c(=O)n(C)c3cn2CC2CCCO2)c1 (configuration not stated),>57,-2%
C[C@@]12CC(=O)[C@@H]3[C@@H](CCC4=CC(=O)CC[C@]43C)[C@@H]1CC=C2CC(=O)O,>57,-4%[8 µM]

# Gathered by group, those above containing a cyano group (2)
canonical_smiles,SmPrx2 inh,Anthrax LT inh
Cc1ccc(-c2nc(C#N)c(NCc3ccco3)o2)cc1,>57,14%
COc1ccc(-c2csc(NC(=O)c3cc(C)on3)c2C#N)cc1OC,>57,?

# Following part:
canonical_smiles,SmPrx2 inh,Anthrax LT inh
O=C(OCC1CC(c2ccccn2)=NO1)c1ccc(Br)cc1 (configuration not stated),>57,-4%
c1cncc(-c2nc(-n3ccnc3)c3ccccc3n2)c1,>57,-1%
CCOC(=O)C1(C)NC(c2ccc(N(C)C)cc2)C2C(=O)N(c3ccc(OC)cc3)C(=O)C21 (configuration not stated),>57,-3%
Cc1ccc2c(c1)N(CCC(=O)N1CCC3(CC1)OCCO3)C(=O)C(C)O2 (configuration not stated),>57,3%
c1ccc2c(c1)oc1c(Nc3ccc4c(c3)OCO4)ncnc12,>57,2%
C=CCn1c(SCC(N)=O)nnc1-c1cccc(Br)c1,>57,3%
O=C1CCCc2c1cc(C(=O)NCc1ccco1)c(=O)n2-c1ccccc1,>57,4%
CNc1cc(-c2ccccc2C(F)(F)F)ncn1,>57,0%
COC(=O)c1ccccc1NC(=O)c1noc2c1CC(C(C)(C)C)CC2 (configuration not stated),>57,-3%
c1nc(NCCN2CCOCC2)c2c3c(sc2n1)CCCCC3,>57,2%
CCOC(=O)c1c(C)n(O)c2ccc(Cl)cc2c1=O,>57,8%
CCCn1c(N2CCN(CC(=O)c3c(C)n(C)c4ccccc34)CC2)nc2c1c(=O)[nH]c(=O)n2C,>57,-26%
Cc1ccccc1-c1cc(Nc2ccccc2)ncn1,>57,-6%
C=CCn1c(SCc2ccccc2C#N)nnc1-c1cc(Br)ccc1O,?,?
O=C(CSc1nnnn1-c1ccccc1)N1CCc2ccccc2C1,>57,12%
COc1ccc(N2C(=O)C3CCCN3C2c2cccc(C)c2)cc1Cl (configuration not stated),>57,21%
CC(C)Cn1c(-c2ccc(F)cc2)n[nH]c1=S,>57,-4%
O=S(=O)(NCC1CCCO1)c1ccc(Oc2ccccc2)cc1 (configuration not stated),>57,?
O=c1[nH]c(=S)[nH]c2c1CN(CCCN1CCOCC1)CN2,>57,-10%[8 µM]
C=C(C)C(O)/C=C/CCCCCCC (configuration not stated),/,-3%[8 µM]
COc1c(Br)cc2c(C)c(C(=O)O)oc2c1Br,/,?
Cc1nn(Cc2ccc(Cl)cc2)c(C)c1NC(=O)c1cc(-c2ccc3c(c2)OCO3)on1,>57,2%
CCOCC(O)CSCc1ccc(Cl)cc1 (configuration not stated),/,1%
Cc1[nH]c2ccccc2c1C1=CN2CCS(=O)(=O)N=C2S1,>57,-7%
CCN1CCN(Cc2ccc(OCc3ccccc3)cc2)CC1,>57,-7%
CC(=O)O[C@@H]1CC[C@]2(C)[C@H]3CC[C@]4(C)[C@H](C[C@H]5CCCC[C@@]54C(C)=O)[C@@H]3CC(=O)[C@@]2(O)C1,>57,?
CN(C)CCOC(c1ccccc1)c1ccccc1,>57&>57,?
O=C(NCc1ccccn1)c1ccc2nc(-c3ccco3)c(-c3ccco3)nc2c1,>57,-21%
CCc1cc2c(CN3CCN(CC)CC3)cc(=O)oc2cc1O,>57,?
CC1(C)CC(C#N)(N2CCOCC2)CCO1 (configuration not stated),>57,11%
O=C(c1ccc2nc(N3CCOCC3)sc2c1)N1CCN(C(=O)c2ccco2)CC1,>57,12%
CCOC(=O)N1CCN(C(=O)c2cc(-c3ccc(F)cc3)[nH]c2C)CC1,>57,17%
O=C(O)C/C=C\CC(=O)O,>57,-4%[8 µM]
CS(=O)(=O)N1CCC(C(=O)Nc2ccccc2F)CC1,>57,-7%
Cc1cccc(CN(C)CCc2ccccn2)c1,>57,-11%
O=C1c2ccccc2C2(c3ccccc3)NCCN12 (configuration not stated),>57,-15%
c1cncc(Nc2nc(-c3ccncc3)cs2)c1,>57,?
Cc1ccccc1NS(=O)(=O)c1ccc2[nH]cc(C(=O)N(C)Cc3ccco3)c(=O)c2c1,>57,6%
COc1ccc(OC(C)C(=O)NCc2cccnc2)cc1 (configuration not stated),>57,3%
CC12C=C(/C=C/c3ccccc3)C(C)(C1)C(c1ccccc1)CC2=O (configuration not stated),/,-10%[8 µM]
COc1ccc(NC(=O)COc2ccccc2)c(OC)c1,>57,21%
O=c1c2cnn(-c3ccccc3)c2nnn1Cc1ccccn1,>57,-14%
C#CCCCO/N=C1/[C@H]2O[C@@H]2[C@@H](O)[C@H]2[C@H]1CCn1c(=O)n(-c3ccccc3)c(=O)n12,/,-2%[8 µM]
COc1ccc2c(c1)N(C[C@@H](C)CN(C)C)c1ccccc1S2,>57,?
Cn1c2c(c(=O)n(C)c1=O)CN(CCCN1CCOCC1)CN2,>57,/
O=C1C(Cl)=C(NCC2CCCO2)C(=O)N1CCc1ccccc1 (configuration not stated),>57,23%
c1cncc(-c2nnc3n2N=C(c2cccs2)CS3)c1,>57,9%
Cn1cccc1C(=O)N1CCC2(CC1)CCN(c1ccccc1)CC2,>57,?
CCC(=O)N1c2ccc(S(=O)(=O)CCC(=O)NCCC3=CCCCC3)cc2CC1C (configuration not stated),>57,0%
CN1C(=O)CC(n2c(CO)nc3ccccc32)C1=O (configuration not stated),>57,0%

# (further entries)
canonical_smiles,SmPrx2 inh,Anthrax LT inh
COc1ccccc1CN1CC2(CCN(C(=O)c3ccncc3)CC2)C1,>57,?
Clc1ccc(C(c2ccccc2Cl)C(Cl)Cl)cc1 (configuration not stated),/,?
NC(=O)CSc1nc2ccccc2n1-c1ccccc1,/,0%
O=C(CSc1n[nH]c(-c2ccncc2)n1)c1ccccc1,>57,7%
C=CCC(C#Cc1ccccc1)N(C)C (configuration not stated),>57,-15%
CCC#N,/,?
COc1ccc(NC(=O)CN(C)S(=O)(=O)c2cccc3cccnc23)cc1,>57,7%
Cc1ccsc1C(=O)OCC(=O)c1cc2ccccc2o1,>57,?
NC(=O)c1oc2ccccc2c1NC(=O)c1nc2ccccc2s1,>57,-16%
Cc1ccc(OCCn2c(CCCO)nc3ccccc32)cc1,>57,13%
CCN1CCCC1CNC(=O)c1cc2c(-c3ccc(Cl)cc3)nn(C)c2s1 (configuration not stated),>57,4µM*
Fc1cccc(Cl)c1Cn1nnc(-c2ccc3c(c2)OCO3)n1,>57,?
COc1ccc(C2/C(=C(/O)c3ccccc3)C(=O)C(=O)N2CCN2CCOCC2)c(OC)c1 (configuration not stated),>57,-10%
COc1cc(Cl)c(C)cc1NC(=O)CSc1nc2ccccc2o1,>57,?
CCn1c(CN2CCN(C(=O)c3ccco3)CC2)nc2c1c(=O)n(C)c(=O)n2C,>57,-4%
CCCCn1c(SCC(=O)Nc2nc(C)cs2)nnc1-c1cccnc1,>57,1%
O=C(Nc1nnc(-c2ccccc2)o1)c1ccc(Cl)cc1,>57,1%
CCCCc1nc2c(c3c1CC(C)OC3)CN(CCC(C)C)CC2 (configuration not stated),/,-2%[8 µM]
Cc1oc(C)c(C(=O)Nc2ccc(CC(=O)O)cc2)c1C(=O)Nc1ccc(CC(=O)O)cc1,>57,?
CC(Sc1nnc(-c2cc3ccccc3o2)n1-c1ccccc1)C(=O)O (configuration not stated),>57,-9%
CC(C)(C)C(=O)NC(=C(Cl)Cl)P(=O)(O)O,>57,14%
Cc1ccc(-c2nnc(-c3ccc(NC(=O)c4ccco4)cc3)o2)cc1,>57,/
C1CNC2NCCNC2N1 (configuration not stated),>57,-6%
Clc1ccc(-n2ncc3c(NCCN4CCOCC4)ncnc32)cc1,>57,-1%
COC(=O)N1CC(=O)N(OC)C1c1ccc(Cl)cc1Cl (configuration not stated),>57,-2%

# Next section, overlapping the part above by 5 compounds.
canonical_smiles,SmPrx2 inh,Anthrax LT inh
CC(C)(C)C(=O)NC(=C(Cl)Cl)P(=O)(O)O,>57,14%
Cc1ccc(-c2nnc(-c3ccc(NC(=O)c4ccco4)cc3)o2)cc1,>57,/
C1CNC2NCCNC2N1 (configuration not stated),>57,-6%
Clc1ccc(-n2ncc3c(NCCN4CCOCC4)ncnc32)cc1,>57,-1%
COC(=O)N1CC(=O)N(OC)C1c1ccc(Cl)cc1Cl (configuration not stated),>57,-2%
CCC(C)OC(=O)C1=C(C)NC(=O)NC1c1ccc(F)cc1 (configuration not stated),>57,?
N#CCCn1c(=O)cnc2cnc(N3CCNCC3)nc21,>57,-2%
CCN(C1CCCCC1)S(=O)(=O)c1ccc(S(=O)(=O)N2CCN(CCC#N)CC2)cc1,>57,-14%
COCCNC(=S)c1ccc(OC)cc1,>57,1%
COC(=O)c1cccc(OCC(O)Cn2ccnc2)c1 (configuration not stated),>57,-2%
Cn1c(=S)c2[nH]c(SCCN3CCCC3)nc2n(C)c1=O,>57,-18%[8 µM]
CCCN(CCC)c1nc(NC2CCN(C(=O)OCC)CC2)nc(OC)n1,>57,?
CC(=O)c1cccc(S(=O)(=O)NCC(c2ccco2)N2CCCCC2)c1 (configuration not stated),>57,-2%
O=C(O)Cc1cnc[nH]1,>57,-1%
CC1CCCC(C)N1C(=O)COC(=O)c1ccc[nH]c1=O (configuration not stated),>57,8%
CCOC(=O)N1CCN(C(=O)c2ccc(N3C(=O)CCC3=O)cc2)CC1,>57,0%
CCN(Cc1ccccc1)C(c1cccc(C#N)c1)c1nnnn1C(C)(C)C (configuration not stated),>57,?
Cc1nnc(N)nc1C,>57,-6%
COc1ccc(-c2csc(N3CCOCC3)n2)cc1OC,>57,-4%
Cc1cccc(C#Cc2ccccc2)n1,>57&>57,-15%&4%
CCOc1ccc2nc(NC(=O)CSc3nc4c(c(=O)n(C)c(=O)n4C)n3CC)sc2c1,>57,-2%
CCCCC[C@H](O)c1cccc(OCc2ccc3ccccc3n2)c1,>57,?
Cc1ccc(OCCn2ccc(=O)[nH]c2=O)cc1C,>57,3%
Cc1ccc(C(=O)Nc2nc(COc3ccccc3)cs2)s1,>57,?
COC(=O)CSc1nc2cc(OC)ccc2cc1C#N,>57,-3%
c1c2c(cc3sc(N4CCCCC4)nc13)OCCO2,>57,14%
Cn1c(=O)c(=O)n(C)c2cc(S(=O)(=O)N3CCN(c4cccc(C(F)(F)F)c4)CC3)ccc21,>57,1%
O=C1CC(NCc2ccco2)C(=O)N1CCc1ccccc1 (configuration not stated),>57,-13%
